# NPYLR7 agonist: mosquito NPYLR7 agonism; AID 1259423; hit rate 0.15% among 270,000; activation, % at 10 µM; HEK293T NPYLR7/Galpha15, GCaMP6s calcium fluorescence; in the data active means activation above about 40%;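 further: 0% = vehicle and 100% = reference agonist at the receptor; some compounds past the cut are filed as inactive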
# NPYLR7 agonist max-min: also measured in NPYLR7 agonist; calls as there; activation, %; measured here: Max-Min RFU normalised activation; some inactives read as strong as hits;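 span of the calcium signal over five minutes; 0% = vehicle and 100% = native peptide agonist; compound fluorescence can raise it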
# * hit, by the source's call; & = joins results of further samples. A portion of the library. The share of hits here may be higher or lower than overall.
SMILES,NPYLR7 agonist,NPYLR7 agonist max-min
CN(C(=O)c1c[nH]c2c(F)cccc2c1=O)C1Cc2ccccc2C1,3,1
COc1ccc(CN2CCC(C(=O)NC(c3ccc4c(c3)OCO4)c3ccccn3)CC2)cc1 (stereo not given),7,-4
COc1ccc(-c2nc(CN3CCC[C@H]3C(N)=O)c(C)o2)c(F)c1,-3,-3
CCc1ccc(S(=O)(=O)c2cnc(SCC(=O)Nc3ccc(C)c(F)c3)[nH]c2=O)cc1,-3,-9
O=[N+]([O-])c1ccc(N2CCN(CCO)CC2)c2nonc12,38,34
CC1(C)CN(C(=O)c2cnsn2)CCS1,1,-5
CCC(=O)Nc1ccc(NC(C)c2nnc(C)o2)cc1 (stereo not given),12,7
O=C(NCCc1cccc(F)c1)c1ccc(CSc2ncccn2)o1,-6,-10
Nc1nccc(-c2cccc(CO)c2)n1,4,2
CC(CC(F)(F)F)C(=O)NC1CCc2[nH]c3ccc(Br)cc3c2C1 (stereo not given),31,24
COc1ccc(Cl)cc1-c1nc(C=Nc2ccc(C)cc2Br)c(O)o1,-2,-1
CC(=O)c1cccc(NC(=O)CC(C)n2cncn2)c1 (stereo not given),6,5
CS(=O)(=O)Nc1ccc2nc(-c3cccc(F)c3)nn2c1,13,9
O=C(NCC1CCCN(Cc2cccc3nonc23)C1)C1(c2ccc(Cl)cc2)CC1 (stereo not given),1&-4,-6&-5
COc1ccc(Oc2ncccc2NC(=O)N2CCc3ccccc32)cc1,4,2
COCCn1c(=O)c2c(nc3n(CC4CCCO4)c(C)cn23)n(C)c1=O (stereo not given),-2,21
Cc1cc(S(=O)(=O)N2CCCOC2CNC(=O)C(=O)NCCO)ccc1F (stereo not given),1,2
O=C1NC2(Nc3sc4c(c31)CCCC4)C(=O)Nc1ccc(Br)cc12 (stereo not given),1,1
Cc1nn(C)c(C)c1CNCCC12CC3CC(CC(C3)C1)C2,-3,-3
CCn1nnc2c(N3CCOCC3)ncnc21,12,6
CCS(=O)(=O)NCCc1csc2nc(-c3ccccc3)nn12,-11,-7
C=CCN(CC=C)S(=O)(=O)c1ccc(NC(=S)NC(=O)Cc2ccc(OC)cc2)cc1,3,0
O=C1CCCC2[C@@H]3CCC[N@+]4([O-])CCC[C@H](CN12)C34 (stereo not given in full),3,4
COCCN(C)C(=O)C1CCCN(C(C)C(=O)Nc2ccccc2)C1 (stereo not given),4,2
CCc1ccccc1NC(=O)N(Cc1nc(C(=O)O)cs1)C(C)C,15,12
O=C(Nc1ccc(-c2onc3c2CCCC3)cc1)c1cc(F)c(F)c(F)c1F,-1,11
CNC(=O)c1cccc(NCCN2CCCC(C)C2)n1 (stereo not given),-3,-6
CCCCN(CC(=O)Nc1cc(C(C)(C)C)nn1-c1ccc(Cl)c(Cl)c1)C(=O)Nc1ccc([N+](=O)[O-])cc1,13,8
COc1ccc2c(OC)c3ccoc3nc2c1OC,7&-5,4&-7
Cc1ccccc1CCNS(=O)(=O)c1cccs1,7,5
CC(C(=O)Nc1ccc(Cl)cc1)N1CCN(c2ncccn2)CC1 (stereo not given),7,5
COc1cc(/C=C/C(=O)N2CCCC2C(C)C)ccc1OCC(N)=O (stereo not given),-3,10
Cc1cccc(CN2CCN3CCN(C)CC3C2)c1O (stereo not given),15,9
O=C(c1ccc(-n2cccc2)cc1)N1CCN(S(=O)(=O)c2cccc3nsnc23)CC1,-8,-10
CCCN(CCC)Cc1nc(C(C)C)no1,12,5
NC(=O)c1nc(-c2ccc(Cl)cc2Cl)nc2c1[nH]c(=O)n2-c1ccccc1F,-5,-9
Fc1ccccc1C1CC(c2ccccc2)=NN1c1ccccc1 (stereo not given),-10,-15
O=C(NCC1CCCO1)C1COC2(CCN(C(=O)Cc3ccccc3)CC2)N1C(=O)c1ccc(F)cc1 (stereo not given),2,4
CC(C)(C#N)CCCNc1cccc(S(C)(=O)=O)c1,10,7
O=S(=O)(CCOc1ccccc1)N1C[C@H]2CC=CC[C@H]2C1,0,0
C/C(=C/C(=O)NS(=O)(=O)Cc1ccc(C#N)cc1)c1ccncc1,9,5
O=C(C(=O)N1CCCn2nc(C(=O)N3CCCC3)cc2C1)c1cccs1,0,-3
Cn1c(=O)n(C)c2cc(CNC(=O)c3cn(CCc4ccccc4)nn3)ccc21,2,-3
CCOc1ccc(Nc2oc(-c3ccc(S(=O)(=O)N(C)Cc4ccccc4)cc3)nc2C#N)cc1,0,3
CCCc1nnc(Cl)n1-c1cccc2ncccc12,-1,-5
COCCn1c(O)c(C=Nc2c(C)nn(C)c2C)c(=O)[nH]c1=S,-6,-11
Cc1ccc(C)n1-c1ccc(CNC(=O)NC2CC2)cc1,3,0
C/C=C(\C)CN(CCc1ccccc1)CC1CCCN(C)C1 (stereo not given),-2,-6
Cc1ccc(-c2cc(C(=O)NCc3cccnc3)n(-c3cccc([N+](=O)[O-])c3)n2)o1,21,23
COc1ccc2c(c1OC)C(=O)N1c3cn(C)nc3C(=O)NC21 (stereo not given),-1,29
O=C(NNC(=O)C1CC=CCC1)c1cccc(S(=O)(=O)NCc2ccccc2)c1 (stereo not given),2,16
CN(C)c1ccc(C(=O)Nc2ccccn2)cc1[N+](=O)[O-],2,-2
Cc1cccc[n+]1Cc1ccccc1,-7,-15
COc1ccc(Nc2ccc(NC(=O)CNC(=O)C(C)(C)C)cc2)cc1,3,0
CCCCCOc1ccc(C=C(C#N)S(=O)(=O)c2ccccc2)cc1OC,-5,-10
O=C(O)CCc1nn2c3ccccc3n(CC(=O)c3ccccc3)c2nc1=O,15,13
Cc1ccc(CCS(=O)c2ccc(C(C)C)cc2)c[n+]1C (stereo not given),-2,-2
Cc1ccc(-n2c(SCc3ccc(C(=O)N4CCOCC4)cc3)nnc2-c2cccnc2)cc1,-6,4
CCCCCC(=O)N1C[C@@H](C(=O)OCC)[C@@H]2Oc3c(F)cccc3[C@@H]21,-2,12
COc1ccc(N2CCN(C(=O)CN(C)Cc3sccc3C)CC2)cc1,10,9

# Single records, from the list above. Values in the order: NPYLR7 agonist | NPYLR7 agonist max-min
# Results for Cc1ccc(C)n1-c1ccc(CNC(=O)NC2CC2)cc1 → 3 | 0
# Results for COCCn1c(O)c(C=Nc2c(C)nn(C)c2C)c(=O)[nH]c1=S → -6 | -11

# (more compounds)
SMILES,NPYLR7 agonist,NPYLR7 agonist max-min
CSCCN(C)CC(=O)NC(C)(C#N)C(C)C (stereo not given),0,-7
Cc1cc(C(=O)N2CC(=O)Nc3ccccc32)no1,2,-1
C=CCCC(O)(CCC=C)c1ccc(CN(CCN2CCOCC2)Cc2ccccc2OC)o1,3,5
Nc1nc(SCc2nnc(-c3ccc(Cl)cc3)o2)n[nH]1,-1,28
COCCNC(=O)c1cc(NC(=O)Nc2ccc(C)c(C)c2)ccc1N1CCC(Cc2ccccc2)CC1,-2,9
CC1(C)C2CC=C(C=Nn3cnnc3)C1C2 (stereo not given),-1,1
CCOCCCn1c(C)cn2c3c(=O)n(Cc4ccccc4)c(=O)n(C)c3nc12,-1,6
Cc1nc(C)c(CN(C)CC2CC(=O)N(C3CCCC3)C2)s1 (stereo not given),7,4
Cc1nc(N)ncc1C(=O)N1CCN(C2Cc3ccccc3C2)CC1,0,-2
COc1ccc(-c2cc(C(=O)NCc3cccc(C(F)(F)F)c3)n(-c3cccc(C)c3)n2)c(OC)c1,-6,1
C=CCONC(=O)c1cccc(Nc2nccc(Nc3cccc(C)c3)n2)c1,2,-2
O=C(CCc1ccccc1)C1CCCN(Cc2nc(CC3CC3)no2)C1 (stereo not given),3,-1
Cc1cc(CC(=O)NC2CC2c2ccc(Br)cc2)no1 (stereo not given),7,4
CCc1nccc(CN2CCCOc3c(cccc3OC)C2)n1,6,5
COc1ccc2oc(=O)c(-c3nnc(Nc4cc(C(F)(F)F)ccc4Cl)s3)cc2c1,-4,-9
COc1cc(CN(CC(O)COc2ccccc2)C2CC2)cc(OC)c1 (stereo not given),18,15
C(=C1CCN(Cc2nnc(-c3ccco3)o2)CC1)c1ccccc1,6,4
CN1CCN(Cc2oc(CO)cc(=O)c2O)CC1,-1,-3
Cc1ccc(C(=O)N2CCN(C(=O)CN3CCCC3)C2)cc1,2,9
COC(=O)c1ccc(-c2noc(CN3CCC(C(=O)N4CCOCC4)CC3)n2)cc1,5,4
CCCCN(CC(=O)N(CCc1c[nH]c2ccccc12)Cc1ccc(Cl)c(Cl)c1)Cc1ccc(Cl)cc1Cl,0,5
COc1ccc(-c2csc(NC(=O)c3cc4ccccc4cc3OC)n2)cc1,3,-2
COc1cccc(Cn2nc(C(=O)NC3CC3)c3c2CCN(C(=O)CCc2c[nH]c4ccccc24)C3)c1,26,15
CC(CCCO)NC(=O)c1cnsn1 (stereo not given),15,14
O=C(O)c1ccc(CSc2nc(-c3ccccc3)cc(N3CCCC3)n2)o1,15,16
Cc1ccc(F)cc1N=c1c([N+](=O)[O-])nn(-c2ccc(Cl)cc2)n1O,4,3
Cc1nc(N2CCCC(C(=O)NCc3ccsc3)C2)nc2cc(S(C)(=O)=O)ccc12 (stereo not given),1,-2
O=C(CSc1nc2c(cnn2CCO)c(=O)[nH]1)NCCc1ccccc1,5,5
O=C1NCCc2ccccc2C1c1ccccc1 (stereo not given),-2,-5
Cc1nnc(C2CCCN2CCOc2ccc(C(C)C)c(C)c2)o1 (stereo not given),2,1
COc1cccc(COC2CCCN(C(=O)Nc3cccc(Cl)c3)C2)c1 (stereo not given),-5,-2
CCCn1c(=O)[nH]c2cc(S(N)(=O)=O)ccc21,4,0
Cc1ccc2oc(-c3ccc(NC(=O)c4cc(Br)ccc4Cl)cc3O)nc2c1,8,11
COc1cn(CC(=O)NC(C)C)c(CN2CCN(c3ccc(F)cc3)CC2)cc1=O,1,-1
N#Cc1cccc(OCCN2CCCC(c3nc4ccccc4o3)C2)c1 (stereo not given),0,-2
CC(C#N)C(C)(O)c1ccccc1 (stereo not given),-2,-2
CCC1CCc2sc(C(=O)O)cc2C1 (stereo not given),-6,-9
Cc1cccc(Nc2nc(NCCN(C)C)nc3c2cnn3-c2ccccc2)c1,2,1
CCC(=O)N=c1sc2cc(Cl)cc(Cl)c2n1C,8,9
CCn1c(C)nc2cc(C(=O)NNC(=O)c3ccc(COc4ccc(F)cc4)o3)ccc21,-1,14
COC(=O)C1=C(C)N(C)C(C)=C(C(=O)OC)C1c1cccc(Cl)c1,-4,-3
CN(CC(=O)Nc1ccccc1Br)C(=O)CN1CCN(c2cccc(Cl)c2)CC1,0,0
Cc1ccc(-c2noc(Cn3ccn4nc(-c5cccs5)cc4c3=O)n2)cc1,-6,-11
CCCc1noc(CNC(C)(CO)c2ccccc2)n1 (stereo not given),-1,-5
CCOC(=O)CN(Cc1cccn1Cc1ccc(C(F)(F)F)cc1)CC(C)C,5,5
CC(C(=O)NC1CCCCC1)N1CCN(S(=O)(=O)c2ccc(Cl)cc2)CC1 (stereo not given),-5,-5
CCOc1ccc(-n2nnc3c(=O)n(Cc4ccc(Cl)cc4)cnc32)cc1,7,10
CC1CCCCCN1C(=O)c1cnn2c1[nH]c(=O)c1ccccc12 (stereo not given),5,1
CC(C)c1c(C#N)c(N)nc(SC2CC(=O)N(c3ccccc3)C2=O)c1C#N (stereo not given),-3,-9
N#Cc1ccccc1CNc1ccc(F)cc1Cl,1,-1
COc1ccc(/C=C/CN2CCCC(CO)(Cc3cccc(Cl)c3)C2)cc1 (stereo not given),-8,-12
CCOC(=O)c1c(NC(=O)c2ccccc2)sc(C(=O)Nc2cccc(Cl)c2)c1C,7,1
C#CCOCC(O)CN(Cc1ccco1)Cc1c(CC)nn(-c2ccccc2)c1Oc1ccccc1 (stereo not given),-4,2

# Entries shown so far that have a Cl atom (20):
SMILES,NPYLR7 agonist,NPYLR7 agonist max-min
COc1ccc(Cl)cc1-c1nc(C=Nc2ccc(C)cc2Br)c(O)o1,-2,-1
O=C(NCC1CCCN(Cc2cccc3nonc23)C1)C1(c2ccc(Cl)cc2)CC1 (stereo not given),1&-4,-6&-5
CCCCN(CC(=O)Nc1cc(C(C)(C)C)nn1-c1ccc(Cl)c(Cl)c1)C(=O)Nc1ccc([N+](=O)[O-])cc1,13,8
CC(C(=O)Nc1ccc(Cl)cc1)N1CCN(c2ncccn2)CC1 (stereo not given),7,5
NC(=O)c1nc(-c2ccc(Cl)cc2Cl)nc2c1[nH]c(=O)n2-c1ccccc1F,-5,-9
CCCc1nnc(Cl)n1-c1cccc2ncccc12,-1,-5
Nc1nc(SCc2nnc(-c3ccc(Cl)cc3)o2)n[nH]1,-1,28
COc1ccc2oc(=O)c(-c3nnc(Nc4cc(C(F)(F)F)ccc4Cl)s3)cc2c1,-4,-9
CCCCN(CC(=O)N(CCc1c[nH]c2ccccc12)Cc1ccc(Cl)c(Cl)c1)Cc1ccc(Cl)cc1Cl,0,5
Cc1ccc(F)cc1N=c1c([N+](=O)[O-])nn(-c2ccc(Cl)cc2)n1O,4,3
COc1cccc(COC2CCCN(C(=O)Nc3cccc(Cl)c3)C2)c1 (stereo not given),-5,-2
Cc1ccc2oc(-c3ccc(NC(=O)c4cc(Br)ccc4Cl)cc3O)nc2c1,8,11
CCC(=O)N=c1sc2cc(Cl)cc(Cl)c2n1C,8,9
COC(=O)C1=C(C)N(C)C(C)=C(C(=O)OC)C1c1cccc(Cl)c1,-4,-3
CN(CC(=O)Nc1ccccc1Br)C(=O)CN1CCN(c2cccc(Cl)c2)CC1,0,0
CC(C(=O)NC1CCCCC1)N1CCN(S(=O)(=O)c2ccc(Cl)cc2)CC1 (stereo not given),-5,-5
CCOc1ccc(-n2nnc3c(=O)n(Cc4ccc(Cl)cc4)cnc32)cc1,7,10
N#Cc1ccccc1CNc1ccc(F)cc1Cl,1,-1
COc1ccc(/C=C/CN2CCCC(CO)(Cc3cccc(Cl)c3)C2)cc1 (stereo not given),-8,-12
CCOC(=O)c1c(NC(=O)c2ccccc2)sc(C(=O)Nc2cccc(Cl)c2)c1C,7,1

# High-throughput results deposited in PubChem by Fisher Drug Discovery Resource Center.
